# eIF4H FP inh: human eIF4H binding inhibitors, primary screen, translation initiation inhibitor project, biochemical, uHTS, fluorescence polarization; AID 2012, 2009; 290,000 tested, 0.94% active; inhibition, % at 35 µM; eIF4H fluorescence polarization binding assay;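 active = 50% or more with normal probe brightness, or confirmed in later tests; about a fifth of its hits are not listed in these tables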;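 note: calls also rest on retests at 20 µM and on dose response follow-up; 0% = protein and probe with vehicle and 100% = probe without protein; strong numbers were not always called active; many hits fall short of the cut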
# MT1-MMP act inh: blockers of MT1-MMP proenzyme processing, primary screen, HT1080 RFP-PRO-GFP cells, GFP/RFP fluorescence; GFP/RFP ratio change, % at 20 µM; GFP/RFP ratio fluorescence, overnight; percent of plate control window, DMSO zero; 360,000 tested, 0.061% active; Matrix metalloproteinase-14 (Homo sapiens), P50281; AID 651647, 2012;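 active = GFP/RFP ratio change of at least 30% with cell ATP level not reduced by more than half and red fluorescence within 50% of control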; note: strong numbers were not always called active
#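 Compound: 20 µM single dose, 1% DMSO / System: HT1080 RFP-PRO-GFP cells / Controls: DMSO and RFP-L50D-GFP cell wells / Read-out basis: GFP/RFP fluorescence ratio / Schedule: overnight compound exposure at 37 °C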
# CSC inhib: cancer stem cell viability inhibitors, primary screen, luminescence. cancer stem cell-like cells viability. inhibition, % at 7.5 µM. 300,000 tested, 1.1% active;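 active = mean at 75% or more and at least half the replicates too; tested in HMLE shEcad cells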;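 note: 0% = median of negative and 100% = median of positive control wells; the first replicate is given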
# UUG fidelity: modulators of yeast start codon fidelity, primary screen, whole organism, S. cerevisiae, single point, plate reader; activity score, % at 18.7 µM; S. cerevisiae UUG-firefly luciferase reporter, luminescence/redox ratio; 350,000 tested, 0.13% active;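 active = replicate mean at a twofold rise or more, about +100% in these data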;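 note: firefly luciferase made from a UUG start codon reports start codon fidelity; reporter light over untreated wells divided by growth signal over untreated wells; some hits fall short of that in this replicate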
# PABP FP inh: PABP poly(A) RNA binding inhibitors, primary screen, biochemical, fluorescence polarization, uHTS; Polyadenylate-binding protein 1 (Homo sapiens), P11940; inhibition, % at 35 µM; 290,000 tested, 1% active; AID 2014, 2009;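 active = 50% or more with normal probe brightness, or confirmed in later tests; about a fifth of its hits are not listed in these tables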;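 note: calls also rest on retests at 20 µM and on dose response follow-up; controls were probe without protein and protein plus probe with vehicle; some compounds called inactive have numbers as strong as hits; many hits fall short of the cut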
# Target sequence (P11940 whole entry, looked up): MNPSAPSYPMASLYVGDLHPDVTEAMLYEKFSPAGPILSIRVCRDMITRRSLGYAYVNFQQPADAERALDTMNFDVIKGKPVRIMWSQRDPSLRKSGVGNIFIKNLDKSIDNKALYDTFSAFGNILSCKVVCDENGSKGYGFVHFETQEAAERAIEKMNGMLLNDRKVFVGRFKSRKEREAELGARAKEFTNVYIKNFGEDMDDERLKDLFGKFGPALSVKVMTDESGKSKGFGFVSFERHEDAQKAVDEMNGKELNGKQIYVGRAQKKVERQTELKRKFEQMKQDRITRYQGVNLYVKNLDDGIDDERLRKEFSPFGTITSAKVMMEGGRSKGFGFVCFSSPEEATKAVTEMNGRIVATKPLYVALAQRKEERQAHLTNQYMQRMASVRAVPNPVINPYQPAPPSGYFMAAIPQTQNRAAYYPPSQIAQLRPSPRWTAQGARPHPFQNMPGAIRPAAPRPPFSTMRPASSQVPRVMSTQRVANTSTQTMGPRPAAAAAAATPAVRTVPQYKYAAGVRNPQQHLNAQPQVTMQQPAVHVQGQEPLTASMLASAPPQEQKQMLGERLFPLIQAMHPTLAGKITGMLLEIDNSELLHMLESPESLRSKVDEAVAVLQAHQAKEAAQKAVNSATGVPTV
# Rce1 inhib: yeast Rce1p protease inhibitors, primary screen, biochemical, fluorescence, cell-free homogeneous | calls only | yeast membranes, quenched prenylated peptide cleavage fluorescence | CAAX prenyl protease 2 (Saccharomyces cerevisiae (strain ATCC 204508 / S288c)), Q03530 | 290,000 tested, 0.27% active | AID 2563, 2010;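 active = fall in fluorescence gain of 50% or more versus controls, with final raw signal at or below 3038400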;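 note: plate controls were neutral control wells for no effect and wells lacking membranes for full effect; tested at 10 µM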
# HIV Env fusion: inhibitors of HIV-1 Env-driven cell-cell fusion, primary screen, HeLa-JRFL effector, CEM21 target cells, luciferase | inhibition, % at 12.3 µM | 360,000 tested, 1.1% active | AID 651610, 2012;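 active = mean replicate inhibition score of at least 50 and every replicate individually at or above 50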;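 note: 0% = plate neutral controls and 100% = maraviroc near 300 nM; one replicate is shown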
# eIF4H FP inh retest: further read-out of eIF4H FP inh, marked with its call; inhibition, %; compound at 20 µM; confirmation average;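 mean of two retest wells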
# PABP FP inh retest: further read-out of PABP FP inh, marked with its call; inhibition, %; compound at 20 µM; confirmation repeats;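 mean of two retest wells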
# MT1-MMP act inh RFP: also measured in MT1-MMP act inh; calls as there; RFP signal change, %; measured here: RFP expression control read;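 0 = vehicle wells; hits needed this value within 50% of zero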
# * marks the source's active call; other numbers are inactive results; i = inactive; x = no result given. Some of the compounds tested, so the mix of outcomes need not match the whole.
SMILES,eIF4H FP inh,MT1-MMP act inh,MT1-MMP act inh RFP,CSC inhib,UUG fidelity,PABP FP inh,Rce1 inhib,HIV Env fusion,others
Fc1ccccc1CNc1cc(Cl)cc(Cl)c1,-6,3,6,7,-24,-7,i,31,
CC1=C(C(=O)N2CCCC(N3CCN(c4cccc(Cl)c4)CC3)C2)OCCO1 (stereo not drawn),3,-1,-6,-10,-1,4,i,-16,
COc1cccc(-n2nc3c(=S)[nH]nc(C)c3c2C)c1,-1,3,4,-6,x,-4,i,x,
O=C(Nc1ccc(Cn2ccnc2)cc1)c1cccc(C(F)(F)F)c1,-4,5,-4,x,-9,-8,i,-54,
O=C(NCc1ccc(F)cc1)C1CCC(CNS(=O)(=O)c2ccccc2)CC1 (stereo not drawn),-2,0,0,-17,-16,-2,i,-4,
CS(=O)(=O)N1CCN(c2ccc([N+](=O)[O-])c(NCc3cccnc3)c2)CC1,-2,4,2,-20,x,6,i,25,
Cc1cccc(NC(=O)CSCC(=O)Nc2ccccc2C(=O)N2CCCCC2)c1,x,-1,2,x,1,x,x,10,
O=C(Nc1ccc(F)c(Cl)c1)c1ccc2c(c1)OCO2,12,1,-3,9,-22,-8,i,-162,
CN1CC2(C)CN(C(c3ccccc3)c3ccccc3)CC(C)(C1)C2O (stereo not drawn),2,2,6,-9,10,2,i,x,
CCOc1ccc(CN(C)CC(=O)Nc2cc(C)c(C)cc2[N+](=O)[O-])cc1,0,-3,-5,14,-16,3,x,11,
CCOC(=O)c1c(-c2ccncc2)csc1N,-1,-11,-2,3,-14,24,i,x,
Cc1cccc(C2Nc3ccccc3C(=O)N2c2ccc(F)cc2)n1 (stereo not drawn),-2,-3,4,-3,-23,-3,i,-95,
OC12CCCCC1C(c1ccc3c(c1)OCO3)N(Cc1ccc(F)cc1)CC2 (stereo not drawn),3,-1,0,1,1,-2,i,x,
Cc1ccccc1Sc1ncccc1[N+](=O)[O-],x,0,1,-6,x,x,i,-10,
O=S(=O)(c1cccnc1)N1CCn2cccc2C1c1ccccc1F (stereo not drawn),x,-5,1,-17,-1,x,i,10,
COc1cc2c(cc1OC)CN(C(=O)c1ccncc1)CC2,-9,-1,2,-4,-9,5,i,-27,
CCOC(=O)C1CCCN(C(=O)c2cc(S(=O)(=O)N3CCCCC3)ccc2Cl)C1 (stereo not drawn),x,-1,-12,-8,7,x,i,-1,
CCc1ccc(OCCOCC(O)CN(CCO)CCO)cc1 (stereo not drawn),0,0,1,-11,x,-6,i,4,
COc1ccc(-c2cn(-c3ccc(C)c(C)c3)c(=S)[nH]2)cc1OC,-9,0,-3,2,-21,2,i,7,
CNC(=O)c1cc(C(=O)c2ccccc2Br)c[nH]1,-10,4,2,0,-23,-13,i,-5,
COc1ccccc1C(=O)NNC1CC(=O)N(c2ccc3c(c2)OCCO3)C1=O (stereo not drawn),0,0,3,10,6,1,i,x,
O=C(CSc1nnc(-c2ccc(O)cc2)o1)N1CCOCC1,8,0,3,5,-6,39,i,-94,
COc1ccccc1S(=O)(=O)Cc1ccc(C(=O)NCc2ccc3c(c2)OCO3)o1,2,3,-2,-7,1,2,i,4,
COC(=O)c1nnn(CC(=O)Nc2cccc(OC)c2)c1C(=O)OC,-10,-2,3,-5,-20,1,i,-28,

# By substructure: the compounds so far with four or more nitrogen atoms
SMILES,eIF4H FP inh,MT1-MMP act inh,MT1-MMP act inh RFP,CSC inhib,UUG fidelity,PABP FP inh,Rce1 inhib,HIV Env fusion,others
COc1cccc(-n2nc3c(=S)[nH]nc(C)c3c2C)c1,-1,3,4,-6,x,-4,i,x,
CS(=O)(=O)N1CCN(c2ccc([N+](=O)[O-])c(NCc3cccnc3)c2)CC1,-2,4,2,-20,x,6,i,25,
COC(=O)c1nnn(CC(=O)Nc2cccc(OC)c2)c1C(=O)OC,-10,-2,3,-5,-20,1,i,-28,

# The main list resumes with the two entries that preceded the break.
SMILES,eIF4H FP inh,MT1-MMP act inh,MT1-MMP act inh RFP,CSC inhib,UUG fidelity,PABP FP inh,Rce1 inhib,HIV Env fusion,others
COc1ccccc1S(=O)(=O)Cc1ccc(C(=O)NCc2ccc3c(c2)OCO3)o1,2,3,-2,-7,1,2,i,4,
COC(=O)c1nnn(CC(=O)Nc2cccc(OC)c2)c1C(=O)OC,-10,-2,3,-5,-20,1,i,-28,
COc1cc(C(=O)N2CC(=O)Nc3ccccc32)cc(OC)c1OC,x,-8,-9,x,-9,x,x,-47,
CC(=O)N1CCN(C(=O)C2(NC(=O)Nc3ccc(C)cc3)CCCCC2)CC1,0,2,-1,1,-6,6,i,9,
Cc1cc(C(F)(F)F)n2ncc(-c3ccc(F)cc3)c2n1,-9,-5,3,11,-13,-4,i,x,
CCOC(=O)N1CCC(c2cc(=O)n3[nH]cc(C(=O)OC)c3n2)CC1,6,1,3,-4,-18,4,i,4,
CCOC(=O)N1CCN(C(=O)C2CCN(S(=O)(=O)N(CC)CC)CC2)CC1,6,2,-5,-3,7,10,i,1,
COC(=O)CCC(=O)N1CCCC(N2CCN(c3ccc(OC)cc3)CC2)C1 (stereo not drawn),3,-1,1,8,0,-17,i,8,
CC1CCN(CCCNC(=O)C2CCC(=O)N2C2CCCC2)CC1 (stereo not drawn),8,-1,1,2,5,3,i,-27,
Cc1c(NC(=O)CSc2nnc3c4ccccc4n(CCc4ccccc4)c3n2)c(=O)n(-c2ccccc2)n1C,11,10,-12,38,x,0,i,x,
C=CCOc1ccc(Cl)cc1CNC1CCCC1,-4,1,-3,-9,x,10,i,-2,
COC(=O)CSc1nc(SC)nc2c1sc1nc(-c3ccco3)c3c(c12)CC(C)(C)OC3,x,-1,1,x,-19,x,x,1,
Cc1sc2ncnc(SCC(=O)NC3CCS(=O)(=O)C3)c2c1C (stereo not drawn),x,-3,2,x,-9,x,x,-3,
O=C(O)c1[nH]c2ccc(Cl)cc2c1CC(=O)N1CCN(C(=O)c2ccco2)CC1,45,1,7,5,-13,58,x,x,eIF4H FP inh retest=9;PABP FP inh retest=12

# Some of these compounds in order of heavy-atom count, ascending:
SMILES,eIF4H FP inh,MT1-MMP act inh,MT1-MMP act inh RFP,CSC inhib,UUG fidelity,PABP FP inh,Rce1 inhib,HIV Env fusion,others
CCOC(=O)c1c(-c2ccncc2)csc1N,-1,-11,-2,3,-14,24,i,x,
COC(=O)c1nnn(CC(=O)Nc2cccc(OC)c2)c1C(=O)OC,-10,-2,3,-5,-20,1,i,-28,
CN1CC2(C)CN(C(c3ccccc3)c3ccccc3)CC(C)(C1)C2O (stereo not drawn),2,2,6,-9,10,2,i,x,
CCOC(=O)C1CCCN(C(=O)c2cc(S(=O)(=O)N3CCCCC3)ccc2Cl)C1 (stereo not drawn),x,-1,-12,-8,7,x,i,-1,
COC(=O)CSc1nc(SC)nc2c1sc1nc(-c3ccco3)c3c(c12)CC(C)(C)OC3,x,-1,1,x,-19,x,x,1,

# Other results follow:
SMILES,eIF4H FP inh,MT1-MMP act inh,MT1-MMP act inh RFP,CSC inhib,UUG fidelity,PABP FP inh,Rce1 inhib,HIV Env fusion,others
COc1cc([N+](=O)[O-])cc(/C=N/NC(=O)Cn2nccc2C)c1O,5,3,2,28,-23,-17,i,-28,
CC(C)CC(=O)Nc1nc2c(c(=O)[nH]1)CCCC2,-5,-1,5,0,-28,-19,i,x,
CCOc1ccc2nc(S(=O)(=O)NC(=O)C3(C)CCN3C(=O)c3c(C)noc3C)sc2c1 (stereo not drawn),x,10,11,x,-8,x,x,-12,
Cc1cc(NS(=O)(=O)c2ccc(NC(=S)NC(=O)c3ccccc3)cc2)no1,20,4,11,-15,x,11,i,0,
CC(Sc1nnc(C2CC2)n1-c1ccccc1)C(=O)N1CCCC1 (stereo not drawn),x,0,2,x,-16,x,x,-1,
COc1ccc(S(=O)(=O)n2cnc3cc(C)c(C)cc32)cc1C,-4,3,-8,-10,x,-1,i,x,
Cc1cc2oc(=O)cc(CN3CCCCC3C)c2c(C)c1Cl (stereo not drawn),-8,-1,-1,44,-8,7,i,-17,
CC(C)c1ccc(C2CC(=O)N3CN(C)CSC3=C2C#N)cc1 (stereo not drawn),8,11,-1,-1,-20,6,i,x,
Cc1nn(CC(=O)NCCN2CCOCC2)c(C)c1[N+](=O)[O-],-2,3,8,-3,-14,-4,i,x,
CCCCOC(=O)Nc1nc2ccccc2s1,5,1,0,-6,x,0,i,x,
CCOc1ccccc1NC(=O)c1ccc2c(c1)C(=O)N(CC)C2=O,-11,3,-2,5,-13,2,i,6,
CCc1sc(N(C(=O)Cc2ccccc2)c2ccc(F)cc2)nc1-c1ccccc1,-3,-4,0,47,1,-13,i,x,
CC(=O)c1sc(NC(=O)c2ccccc2F)nc1-c1ccccc1,0,1,-4,14,x,4,i,-64,
Cc1cc2c(nn1)CCc1c-2no[n+]1[O-],-2,-2,-3,-14,-10,0,i,-1,
Cc1cccc(OCC(=O)NC2CCCc3ccccc32)c1C (stereo not drawn),-3,-10,-8,12,x,4,i,3,
CCC(=O)NCCc1nc2cc(NC(=O)c3ccc(Cl)cc3)ccc2n1C,5,11,-11,1,-10,3,i,-24,
CC1(C)CC(=O)C2=C(C1)Nc1nc(SCCN3CCOCC3)[nH]c(=O)c1C2c1cccs1 (stereo not drawn),-4,2,-2,-6,-9,-9,i,x,
CS(=O)(=O)N(CC(=O)Nc1ccccc1Sc1ccccc1)c1ccc(F)cc1,-9,-4,-12,5,x,-12,i,x,
O=C(Nc1ccc(OC(F)F)c(Cl)c1)Nc1ccc2c(c1)OCO2,12,3,-5,98*,x,-1,i,10,
COc1cc(/C=N/NC(=O)C(=O)N2CCCCCC2)ccc1O,-6,5,-1,-7,-6,2,x,-149,
CCOC(=O)c1sc2ncn(CC(=O)Nc3cc(C)on3)c(=O)c2c1C,x,-6,1,x,-17,x,x,6,
OC1(CC#CCN2CCCCC2)c2ccccc2-c2ccccc21,8,-11,-4,16,x,-7,i,-2,
O=C(NCCc1c[nH]c2ccccc12)C(=O)NCC(c1ccco1)N1CCN(c2ccccc2)CC1 (stereo not drawn),5,-1,-12,10,x,7,i,14,
CCNS(=O)(=O)c1ccc(NC(=O)c2ccccc2)cc1,-5,1,-1,-6,-18,1,i,-37,

# Among those listed so far, these contain a CF3 group:
SMILES,eIF4H FP inh,MT1-MMP act inh,MT1-MMP act inh RFP,CSC inhib,UUG fidelity,PABP FP inh,Rce1 inhib,HIV Env fusion,others
O=C(Nc1ccc(Cn2ccnc2)cc1)c1cccc(C(F)(F)F)c1,-4,5,-4,x,-9,-8,i,-54,
Cc1cc(C(F)(F)F)n2ncc(-c3ccc(F)cc3)c2n1,-9,-5,3,11,-13,-4,i,x,

# Compound activity (PubChem BioAssay)
